PrP UTR inh = inhibition of PrP 5' UTR reporter expression | inhibition, % (test concentration not listed) | cell-based PrP 5' UTR mRNA reporter, plate reader | AID 488862 | 340,000 tested, 0.35% active;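 active = every replicate at 50% or more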;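 note: 0 = median of the neutral control wells; tested in H4 reporter cells; numbers are from one replicate; inactives centre near -14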
RN4220 kill = kills Staphylococcus aureus RN4220; S. aureus RN4220 growth, OD600, 16 h; inhibition, % (test concentration not listed); 330,000 tested, 0.33% active;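 active = z-score of -3 or lower and OD600 up to 0.18 on both plates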;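 note: plate controls were untreated cells for no effect and reference antibiotic for full effect; stock transfer was 100 nL into about 80 µL; one replicate is shown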
ugtP null kill = compounds lethal to S. aureus RN4220 ugtP deletion mutant. OD600 growth, 16 h; some inactives read as strong as hits. growth inhibition, % (no concentration beside the values). 330,000 tested, 0.54% active;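 active = z-score under -3 and OD600 up to 0.15 on both plates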;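 note: plate controls were untreated wells for no effect and antibiotic for full effect; wells of about 80 µL received 100 nL stock; the first replicate is given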
Autofluor counter = compound fluorescence in toxin protease inhibitor counterscreen; compound autofluorescence counterscreen, microsphere flow cytometry; active compounds read high; fluorescence intensity (concentration not given with the values); 360,000 tested, 3.1% active; AID 624483;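 active = at least 3 SD above the mean of all compounds, about 16000 in these data; inconclusive = too few beads counted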;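 note: 100 nL of 1 mM stock went into each well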
BJeLR viability = kills HRASV12-expressing BJeLR cells. 300,000 tested, 0.17% active. BJeLR (HRASV12) viability, CellTiter-Glo ATP luminescence, 48 h; reference of the scale not given here. inhibition, % (no concentration beside the values);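 active = replicate mean above 50%; inconclusive = above 50% but judged a plate artefact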;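 note: 50 nL library stock added to about 25 µL; numbers are from one replicate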
Mtb hypoxia inh = Mtb hypoxia fluorescent reporter inhibition; M. tuberculosis hypoxia-regulated fluorescent reporter, fluorescence; fluorescence inhibition, % (no concentration beside the values); 300,000 tested, 0.1% active;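 active = 35 to 45% if threefold the growth effect, above 45% if 1.5-fold the growth effect; inactive = the rest, general growth blockers included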;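 note: wells of about 50 µL received 100 nL stock; 0% = vehicle wells and 100% = reference inhibitor wells; whole bacteria with a GFP reporter of the hypoxia response; strong numbers were not always called active; many hits fall short of the cut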
Mtb hypoxia inh growth = also measured in Mtb hypoxia inh; calls as there; growth inhibition, %; measured here: M. tuberculosis growth (absorbance);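 0% = vehicle and 100% = reference antibiotic; read after six days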
* hit, by the source's call; ? = inconclusive; · = no result given.

SMILES	PrP UTR inh	RN4220 kill	ugtP null kill	Autofluor counter	BJeLR viability	Mtb hypoxia inh	Mtb hypoxia inh growth
Cn1c(=O)n(CCCOc2ccc(Br)cc2)c2ccccc21	-21.7	6.4	-8.0	2890	-0.6	11.0	8.6
CCc1ccc(C(=O)CN2C(=O)NC3(CCOc4ccccc43)C2=O)s1 (configuration not stated)	-33.9	-0.1	-4.7	8763	·	-1.6	-0.9
CCOC(=O)CSc1cc(C)nc(NC(C)=O)n1	-35.3	4.0	-1.2	19697*	-10.2	9.1	12.8
COC(=O)C1C(=O)C2=C(CC1C)NC(=O)CC2c1ccc(O)c(OC)c1 (configuration not stated)	11.1	1.3	-1.2	2243	-2.5	·	·
COc1cccc(CSCC(=O)NCCc2ccccc2)c1OC	-24.1	4.6	8.4	3076	-7.0	7.7	1.8
Cc1cc2nc(SCCN3CCOCC3)[nH]c2cc1C	-53.4	7.1	5.2	2502	-1.0	17.1	13.3
CN1CCCC(OC(=O)COc2ccccc2)C1 (configuration not stated)	1.0	2.4	6.4	3420	1.5	·	·
CN(C)S(=O)(=O)Oc1ccccc1C(=O)Nc1ccccc1Cl	-5.9	6.6	11.0	1962	-6.3	14.2	10.4
C=CCSc1nnc(NC(=O)Cn2cnc3c2c(=O)n(C)c(=O)n3C)s1	-10.4	1.4	0.5	4529	-5.1	·	·
Cc1ccc(C(=O)NCCNc2nc3cc(C)c(C)cc3cc2C)cc1	6.0	3.4	3.8	2765	3.0	4.1	-3.1
CN(Cc1c(C(=O)N/N=C/c2cccc(F)c2)nnn1-c1nonc1N)C1CCCCC1	-2.1	·	·	5964	1.8	·	·
O=C(O)c1cccc(S(=O)(=O)Nc2cccc(S(=O)(=O)Nc3ccc(Br)cc3)c2)c1	-9.2	-0.1	4.6	5900	·	0.5	-3.4

In the list so far, 3 have an aryl thioether with sulfur outside any ring:
SMILES	PrP UTR inh	RN4220 kill	ugtP null kill	Autofluor counter	BJeLR viability	Mtb hypoxia inh	Mtb hypoxia inh growth
CCOC(=O)CSc1cc(C)nc(NC(C)=O)n1	-35.3	4.0	-1.2	19697*	-10.2	9.1	12.8
Cc1cc2nc(SCCN3CCOCC3)[nH]c2cc1C	-53.4	7.1	5.2	2502	-1.0	17.1	13.3
C=CCSc1nnc(NC(=O)Cn2cnc3c2c(=O)n(C)c(=O)n3C)s1	-10.4	1.4	0.5	4529	-5.1	·	·

Carrying on.
SMILES	PrP UTR inh	RN4220 kill	ugtP null kill	Autofluor counter	BJeLR viability	Mtb hypoxia inh	Mtb hypoxia inh growth
CCCN(CCC)Cc1c(C(=O)N/N=C/c2ccc(C)o2)nnn1-c1nonc1N	-58.8	·	·	4779	4.8	·	·
O=C(COC(=O)c1ccc([N+](=O)[O-])s1)NC(c1ccccc1)c1ccccc1	-42.0	·	·	2181	-2.7	·	·
O=C(Nc1ccc(Nc2ccccc2)cc1)C1CC1	-19.1	-2.2	5.8	2892	-1.8	12.3	13.6
CNC(=O)C(=O)Nc1c(O)c2ccccc2[nH]c1=O	-15.1	1.0	-1.7	3799	-19.6	-0.4	-6.0
CC1(C)CC(N2CCC(=O)NC2=S)CC(C)(C)N1	-1.7	4.6	-3.7	3327	-7.3	7.9	2.9
O=C(NCC(c1cccs1)N1CCOCC1)c1cc(=O)[nH]c2ccccc12 (configuration not stated)	-8.5	-1.7	4.5	?	3.6	6.0	8.8
Cc1ccccc1NC(=O)CSCCN1C(=O)c2ccccc2C1=O	-13.9	7.9	0.6	2605	-8.7	2.3	-4.6
O=C1C2C3C=CC(C3)C2C(=O)N1c1n[nH]c(CCc2ccccc2)n1 (configuration not stated)	-25.6	7.2	8.2	11193	-8.8	-0.8	3.6
CCOC(=O)CSc1ccc2nnc(-c3cccs3)n2n1	-18.8	4.9	12.6	5804	-0.6	1.1	-0.1
CC1(C)C2CC=C(/C=N/NC(=O)c3ccccc3Br)C1C2 (configuration not stated)	-14.1	·	·	2152	-0.8	·	·
O=C(/C=C/c1ccc(Cl)cc1)NC(=S)Nc1ccccc1C(=O)O	-14.7	7.9	2.3	3775	-7.7	14.6	9.9
CCn1ncc(Cl)c1C(=O)NC(C)c1ccccc1 (configuration not stated)	-17.4	2.1	1.5	8931	-8.0	11.6	7.4
COc1ccc(/C=N\NC(=O)COc2ccccc2)c(C(=O)O)c1OC	-21.5	·	·	2377	-0.1	·	·
COc1ccc2nc(N/C(N)=N/C(=S)Nc3cccc(C)c3)nc(C)c2c1	-13.8	28.9	0.8	3005	9.4	1.1	2.4
Cc1ccc(C(OCC(O)CNC(C)c2ccccc2)c2ccccc2)cc1 (configuration not stated)	-1.8	-6.4	6.3	4151	-19.4	5.2	9.8
O=C(/C=C/c1cccc([N+](=O)[O-])c1)OCC(=O)N1CCN(C(=O)c2ccco2)CC1	1.2	2.4	1.3	4075	·	5.1	7.0
Cc1ccc(C(=O)N2CCN(c3ccc(F)cc3)CC2)cc1S(=O)(=O)N1CCCCC1	-12.3	0.1	-0.6	6215	10.1	3.5	1.5
CC(=NNc1nccnc1Cl)c1ccc(Cl)c(Cl)c1	·	1.4	-1.6	·	·	3.6	0.8
CCOC(=O)c1ccc(NC(=S)NCCCn2ccnc2)cc1	6.8	-0.9	2.8	3233	-7.2	14.9	10.3
CCCCN(CC)S(=O)(=O)c1ccc(C(=O)Nc2nnc(CSC)o2)cc1	-15.1	46.6	16.8	4300	7.6	4.6	3.4
CC(C)CSC1=NSC2=NC(=O)/C(=C\c3coc4ccccc4c3=O)C(=N)N12	-18.6	10.7	11.8	3238	-5.2	12.7	9.6
CC(=O)n1cc([C@H]2C=C(C(=O)O)O[C@@H](OCCCCO)C2)c2ccccc21	-0.6	·	·	3879	-4.3	·	·
O=C(O)c1ccc2c(c1)C(=O)N(c1ccccc1-c1ccccc1)C2=O	-42.3	4.2	2.6	4148	5.3	17.1	14.7
CC(C)=CC(=O)Nc1ccc(S(=O)(=O)Nc2onc(C)c2C)cc1	-31.1	-1.4	4.4	3881	7.0	19.6	4.2
O=c1[nH][nH]cc1C=Nc1ccc(Cl)cc1Cl	-5.5	2.6	11.4	2197	-2.6	-8.4	-4.5
COc1ccc(C=Nn2cnc3c(sc(=S)n3-c3ccccc3)c2=O)cc1	·	4.7	9.0	·	·	-2.4	10.9
O=C(O)CCCC=CCC1C(O)CC(O)C1C=CC(O)COc1cccc(Cl)c1 (configuration not stated)	·	-1.0	-2.4	·	·	-5.8	4.5
CC(=NNC(=O)c1ccncc1)c1ccc2c(c1)OCO2	·	0.7	3.4	·	·	·	·
Cc1cc(C)c2c(c1)SC1=NC(c3ccccc3)(C(F)(F)F)NC(=O)N12 (configuration not stated)	-5.0	23.2	51.1	3070	-2.7	17.4	3.6
COc1ccccc1N(C(=O)CNC(=O)c1ccco1)C(C(=O)NCC1CCCO1)c1ccccc1 (configuration not stated)	3.1	0.9	-1.0	3887	11.8	16.1	-2.8
O=C(NC(NNc1ccc([N+](=O)[O-])cc1)(C(F)(F)F)C(F)(F)F)c1ccc(F)cc1	-18.7	4.4	-22.2	2190	1.3	-3.8	9.6
Cc1ccc(N2CC(=O)N(NC(=O)Nc3ccc(Cl)c(Cl)c3)CC2=O)cc1	-15.8	1.8	5.0	5860	2.7	0.6	-2.2
COc1ccc(N2CCN(C(=O)[C@H](C)N3C(=O)C4CC=CCC4C3=O)CC2)cc1 (some centres not stated)	-18.3	1.1	5.8	3436	·	4.9	11.7
CCOC(=O)C(=NCC1CCCO1)NNc1cc(Cl)ccc1Cl (configuration not stated)	2.1	1.8	11.0	·	17.5	-3.4	-9.3
CCn1c(C)nc2c1C(=O)c1ccccc1C2=O	3.8	30.5	4.2	3582	-1.7	-5.2	0.9
COc1cc(C#Cc2c(-c3cncn3C)n(C)c3ccc(-c4ccc(CN5CCOCC5)cc4)cc23)cc(OC)c1	-32.1	0.3	-18.6	3601	·	2.7	10.3
S=c1[nH]nc(COc2ccccc2)n1N=Cc1ccc(Cl)cc1	·	3.6	-5.0	·	·	7.9	-5.8
COc1cc(CNCc2ccccn2)ccc1OCc1ccc(Cl)cc1	-23.2	3.3	-3.2	2129	2.0	10.7	7.5
COc1cc(/C=N/NC(=O)C(=O)/C=C2\NC3(CCCC3)Cc3ccccc32)ccc1O	0.3	·	·	2243	-7.6	·	·
CC1NC2(C(=O)N(Cc3ccccc3)c3ccccc32)C2C(=O)N(c3ccccc3)C(=O)C12 (configuration not stated)	-21.7	1.6	0.6	4931	-6.1	-8.4	2.3
CC(=O)c1cccc(NC(=O)CSc2nc(=O)n(CCCN3CCOCC3)c3c2CCC3)c1	-20.7	5.0	7.2	?	1.8	-0.2	-2.5
O=c1c2ccccc2ncn1CCCCOc1ccccc1F	-11.4	0.0	5.6	2981	-8.3	0.1	13.9
COc1ccc(OC)c(C=NNC(=O)c2ccc[n+](CC(=O)c3ccccc3)c2)c1	·	5.4	1.0	·	·	4.0	5.3
CC(=O)Nc1cc(C(=O)OC(C(=O)c2ccccc2)c2ccccc2)ccc1C (configuration not stated)	-1.8	2.7	-6.3	13462	-1.2	-0.6	0.5
Cc1ccc(OCC(=O)NC2CCCC2)c(C)c1	-23.2	1.8	4.9	4143	0.4	·	·
CCCNc1ncc2c(=O)[nH][nH]c(=O)c2n1	2.3	0.6	1.7	3556	·	14.9	4.3
O=C(c1ccc(OC2CCN(CCc3ccccc3)CC2)cc1)N1CCCCC1CCCO (configuration not stated)	-15.7	3.4	-3.3	6295	4.7	7.3	8.9
CCCN(CCC)S(=O)(=O)c1ccc(C(=O)Nc2nnc(-c3cc(OC)cc(OC)c3)o2)cc1	18.3	55.1	20.7	4550	11.4	·	·

Single records (already shown). Order of screens: PrP UTR inh | RN4220 kill | ugtP null kill | Autofluor counter | BJeLR viability | Mtb hypoxia inh | Mtb hypoxia inh growth
COc1cc(/C=N/NC(=O)C(=O)/C=C2\NC3(CCCC3)Cc3ccccc32)ccc1O in the list: 0.3 | · | · | 2243 | -7.6 | · | ·
COc1ccc(OC)c(C=NNC(=O)c2ccc[n+](CC(=O)c3ccccc3)c2)c1 in the list: · | 5.4 | 1.0 | · | · | 4.0 | 5.3
CCCN(CCC)S(=O)(=O)c1ccc(C(=O)Nc2nnc(-c3cc(OC)cc(OC)c3)o2)cc1 in the list: 18.3 | 55.1 | 20.7 | 4550 | 11.4 | · | ·
O=C(c1ccc(OC2CCN(CCc3ccccc3)CC2)cc1)N1CCCCC1CCCO (configuration not stated) in the list: -15.7 | 3.4 | -3.3 | 6295 | 4.7 | 7.3 | 8.9

Following part.
SMILES	PrP UTR inh	RN4220 kill	ugtP null kill	Autofluor counter	BJeLR viability	Mtb hypoxia inh	Mtb hypoxia inh growth
Cc1ccc(C)c(OCCC(=O)OCC(=O)NC2CC2)c1	-29.1	1.8	-0.3	5528	-10.6	7.9	-7.4
N#C/C(=C\c1c[nH]c2ccccc12)C(=O)NCC1CCCO1 (configuration not stated)	-31.2	1.9	-6.1	2040	4.5	0.5	6.4
CC(C)NC(=O)c1sc2c(c1C(=O)Nc1cccnc1)CCCC2	-2.2	1.0	1.7	3992	-8.0	-0.1	-2.2
COCCN(C(=O)COC(=O)/C=C/c1cccc(C(F)(F)F)c1)c1c(N)n(CC(C)C)c(=O)[nH]c1=O	-28.4	4.5	12.8	3530	·	6.2	9.8
Cc1ccc([C@@H]2C3COCC=C3C(C#N)=C(N)C2(C#N)C#N)o1 (some centres not stated)	-2.2	3.4	-1.9	11026	-0.7	5.6	11.3
CC(=O)c1ccc(N2CCN(S(=O)(=O)c3ccc4ccccc4c3)CC2)cc1	3.2	4.6	1.3	3771	·	-0.9	4.8
Fc1ccccc1OCCCCN1CCCCC1	-17.3	-2.6	3.2	4031	-1.1	3.6	-3.0
Cc1ccc(N2C(=O)c3ccc(N)cc3C2=O)cc1C	-116.3	4.9	-6.3	8242	-7.7	12.9	12.7
COC(=O)[C@@H](NCc1cccc(CN[C@H](C(=O)OC)C(C)C)c1)C(C)C	-23.6	·	·	4011	-6.3	·	·
CC1(C)CCc2c([nH]c3ccccc3c2=O)O1	2.5	0.8	-7.1	5579	4.4	·	·
CCCCn1c(SCC(=O)NC2CCS(=O)(=O)C2)nc2ccccc2c1=O (configuration not stated)	-27.5	4.7	1.1	5574	6.6	-6.2	-2.4
CCc1ccc(N=C2NC(=O)/C(=C/c3ccc(OCC(=O)O)cc3)S2)cc1	-15.1	4.7	-1.1	4318	-4.3	-6.6	9.0
CCN(C=NS(=O)(=O)c1ccc(Cl)cc1)CC	·	1.8	-1.2	·	·	-1.7	7.2
Cc1cc(NC(=O)c2cc(-c3ccccn3)nc3ccccc23)no1	-20.1	-1.3	-7.3	9055	-4.2	2.3	7.9

Source: PubChem
